# MT1-MMP act inh – inhibitors of human MT1-MMP activation; P50281; HT1080 RFP-PRO-GFP cells, GFP/RFP ratio fluorescence, overnight; percent of plate control window, DMSO zero; GFP/RFP ratio change, % at 20 µM; 0.061% of 360,000 active; AID 651647;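 active = GFP/RFP ratio change of at least 30% with cell ATP level not reduced by more than half and red fluorescence within 50% of control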; note: strong numbers were not always called active
#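 Test system: HT1080 cells expressing an RFP-PRO-GFP fluorescent reporter construct / Compound dosing: single-point 20 µM compound, 1% DMSO / Schedule: cells overnight before dosing, compound overnight, 37 °C, 5% CO2 / Evaluation: GFP/RFP fluorescence ratio / Control set: DMSO and RFP-L50D-GFP cell wells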
# eIF4H inh – inhibitors of RNA binding by human eIF4H | Q15056 | eIF4H fluorescence polarization binding assay | inhibition, % at 35 µM | 0.94% of 290,000 active | AID 2012;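 active = 50% or more with normal probe brightness, or confirmed in later tests; inconclusive = above 50% with abnormal brightness, or retests that disagree; inactive = below 50% or failed in later tests; about a fifth of its hits are not listed in these tables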;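 note: calls also rest on retests at 20 µM and on dose response follow-up; 0% = protein and probe with vehicle and 100% = probe without protein; strong numbers were not always called active; many hits fall short of the cut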
# Rce1 inh – inhibitors of yeast Ras-converting enzyme. yeast membranes, quenched prenylated peptide cleavage fluorescence. calls only. AID 2563. 0.27% of 290,000 active. Q03530;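 active = fall in fluorescence gain of 50% or more versus controls, with final raw signal at or below 3038400; inconclusive = same 50% fall but final raw signal above 3038400; inactive = fall in fluorescence gain under 50%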;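 note: plate controls were neutral control wells for no effect and wells lacking membranes for full effect; tested at 10 µM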
# Target sequence (Q03530 whole entry, looked up): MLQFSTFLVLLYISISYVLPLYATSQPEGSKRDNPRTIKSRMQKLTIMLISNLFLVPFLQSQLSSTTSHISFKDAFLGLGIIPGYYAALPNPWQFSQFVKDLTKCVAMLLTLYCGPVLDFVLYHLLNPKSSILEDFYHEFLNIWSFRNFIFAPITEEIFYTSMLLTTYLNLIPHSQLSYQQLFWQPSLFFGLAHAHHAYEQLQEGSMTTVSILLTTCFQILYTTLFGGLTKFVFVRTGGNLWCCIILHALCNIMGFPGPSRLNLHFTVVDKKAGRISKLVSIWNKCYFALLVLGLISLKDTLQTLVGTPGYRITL
# CSC inhib – cancer stem cell inhibition | 1.1% of 300,000 active | cancer stem cell-like cells viability, luminescence | AID 2717 | inhibition, % at 7.5 µM;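 active = mean at 75% or more and at least half the replicates too; inconclusive = mean and replicates disagree; tested in HMLE shEcad cells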;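 note: 0% = median of negative and 100% = median of positive control wells; the first replicate is given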
# PABP polyA inh – PABP-poly(A) binding inhibition. P11940. PABP-poly(A) RNA binding, fluorescence polarization. inhibition, % at 35 µM. 1% of 290,000 active;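 active = 50% or more with normal probe brightness, or confirmed in later tests; inconclusive = above 50% with abnormal brightness, or retests that disagree; inactive = below 50% or failed in later tests; about a fifth of its hits are not listed in these tables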;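 note: calls also rest on retests at 20 µM and on dose response follow-up; controls were probe without protein and protein plus probe with vehicle; some compounds called inactive have numbers as strong as hits; many hits fall short of the cut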
# UUG fidelity – modulators of start codon recognition fidelity in yeast | S. cerevisiae UUG-firefly luciferase reporter, luminescence/redox ratio | activity score, % at 18.7 µM | 0.13% of 350,000 active | AID 602363;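 active = replicate mean at a twofold rise or more, about +100% in these data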;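 note: firefly luciferase made from a UUG start codon reports start codon fidelity; reporter light over untreated wells divided by growth signal over untreated wells; some hits fall short of that in this replicate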
# Env fusion inh – blocks HIV Env-driven cell-cell fusion; HeLa-JRFL Env/CEM21 cell fusion, luciferase; inhibition, % at 12.3 µM; 1.1% of 360,000 active;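 active = mean replicate inhibition score of at least 50 and every replicate individually at or above 50; inconclusive = only one of the two criteria met; inactive = mean below 50 and not all replicates reaching 50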;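 note: 0% = plate neutral controls and 100% = maraviroc near 300 nM; one replicate is shown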
# MT1-MMP act inh RFP – also measured in MT1-MMP act inh; calls as there; RFP signal change, %; measured here: RFP expression control read;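 0 = vehicle wells; hits needed this value within 50% of zero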
# Numbers without * were called inactive; i = inactive; u = inconclusive; x = no result given.
molecule	MT1-MMP act inh	MT1-MMP act inh RFP	eIF4H inh	Rce1 inh	CSC inhib	PABP polyA inh	UUG fidelity	Env fusion inh
O=C(O)c1ccc(Cl)c(NCc2cccnc2)c1	-4	1	6	i	-3	0	-14	-12
N#CCCN(Cc1ccccc1)C(C(=O)NC1CCCCC1)C1CC1 (stereo not given)	5	3	x	x	x	x	-4	30
COc1ccc(OC)c(C(=O)c2oc3ccccc3c2NC(C)=O)c1	-5	-3	-6	i	6	-1	-3	-80
O=C(COC(=O)c1c(F)cccc1F)NCCNC(=O)COC(=O)c1c(F)cccc1F	0	-4	-14	i	-15	-6	-12	1
CCCNC(=S)N(Cc1cc2cc(C)ccc2n2nnnc12)CC(C)(C)CN(C)C	-2	1	-13	i	8	-5	-15	13
Fc1ccc(CN2CCN(c3ncnc4scc(-c5ccccc5)c34)CC2)cc1	-6	-9	11	i	9	-8	-10	24
O=C(N/N=C/c1cc2c3c(c1O)CCCN3CCC2)c1ccccc1O	-48	-9	u	i	x	-8	x	-16
CN(C)c1ccc(/C=N/NC(=O)c2ccc3c(c2)OCO3)cc1	2	3	-9	i	7	-12	-12	-14
Cn1cc(SCC(=O)NCC2CCCO2)c2ccccc21 (stereo not given)	7	4	-13	i	-2	1	-11	-19
Clc1ccc(-n2nnnc2-c2ccccc2)cc1	2	0	4	x	-4	0	-14	0
COc1ccccc1/C=N/NC1=NCCCCC1	4	-1	-11	i	1	4	-18	x
Nc1scc2c(C(=O)O)nn(-c3ccccc3)c(=O)c12	3	3	x	x	0	x	-12	20
COc1ccccc1NC(=S)NCCc1ccc(OC)c(OC)c1	2	-2	-2	i	-10	-11	-32	5
O=C(N/N=C/c1ccc([N+](=O)[O-])o1)c1cn(-c2ccccc2)nc1-c1ccc(Cl)cc1	6	0	48	i	27	-2	-18	-3
Cc1cccc(NC(=O)C2CCN(S(=O)(=O)c3cccs3)CC2)c1	-3	-3	-7	i	-7	3	-15	-13
O=C(NC1CCCCC1)C1CCN(C(=O)c2ccccc2Cl)CC1	1	3	8	i	-8	-2	-12	15
CCC1(c2ccccc2)NC(=O)N(CC(=O)Nc2cc(S(=O)(=O)N3CCCCC3)ccc2OC(C)C)C1=O (stereo not given)	5	-5	x	i	6	x	-14	98*
CCn1cc(CNC(=O)c2ccc3nc(Cc4ccccc4F)oc3c2)cn1	-5	-24	-5	i	10	-1	-11	-4
CN(C)S(=O)(=O)N1CCN(C(=O)N2CCOCC2)CC1	2	1	3	i	-7	-6	-3	x
CCN1CCN(c2ccc(S(=O)(=O)N3CCCCC3)cc2NC(=O)c2cccc(C(F)(F)F)c2)CC1	2	0	x	i	4	x	-1	2
COc1cc(C2CC(c3cccs3)=NN2C(=O)CCl)ccc1OC(F)F (stereo not given)	-11	-5	-9	i	34	-10	-21	19
Cn1c(Nc2cccc(Cl)c2)nc2ccccc21	4	-9	-4	i	3	6	-14	-29
C[C@H](CO)N1C[C@H](C)[C@@H](CN(C)Cc2ccc(C(=O)O)cc2)Oc2c(NS(=O)(=O)c3ccccc3)cccc2C1=O	0	1	x	x	-2	x	5	-24
NNC(=O)c1ccc(CSc2n[nH]c(=O)[nH]c2=O)cc1	0	2	0	i	-8	4	-23	3
CCOc1ncccc1C(=O)OCC(=O)N1CCC(C)CC1	-2	-2	x	x	-20	x	-7	x
Nc1cccc2c1C(=O)N(C(=O)c1ccc(Cl)c(S(=O)(=O)N3CCCCCC3)c1)C2=O	-8	-3	12	i	-2	23	-6	-31
O=C(c1ccc(Cl)c(S(=O)(=O)N2CCOCC2)c1)N1CCOCC1	-2	-1	2	i	3	8	-18	-9
CCn1c(C)nc2cc(C(=O)NNC(=O)c3ccc(C)cc3)ccc21	1	3	x	x	x	x	-16	-52
C/C(=N\NC(=O)c1cc(O)cc(O)c1)c1ccc(NC(=O)Cc2ccccc2)cc1	3	1	101*	i	-3	94*	-8	x
COc1ccc(OC)c(NC(=O)C(C)Oc2ccc(Br)cc2)c1 (stereo not given)	2	-1	3	x	-1	12	x	30
CN(C)/C=C/C(=O)c1ccc(S(=O)c2ccccc2)cc1 (stereo not given)	-3	2	3	i	x	-8	x	1
COCC(C)n1c(C)cc(C(=O)COC(=O)c2cc(=O)[nH]c3ccccc23)c1C (stereo not given)	-4	-4	x	x	2	x	-35	x
COc1ccc2c(c1OC)CN1CCc3cc4c(cc3[C@@H]1[C@@H]2O)OCO4	-5	-7	32	i	-13	-1	-15	x
CN(C)c1cccc2cccc(N(C)C)c12	x	x	20	i	-9	20	-12	-8
CCOC(=O)C(c1ccccc1)C(Nc1ccc(Cl)c(Cl)c1)c1ccccn1 (stereo not given)	-5	0	-14	i	-3	-1	-11	32
CCOc1ccc(NC(=O)CCn2c(=O)[nH]c3ccsc3c2=O)cc1	1	-3	-3	i	x	-6	x	-25
Cc1ccc(C)c(N2CCN(C(=O)c3ccc4c(c3)c(C)c(C)n4C)CC2)c1	-2	-1	-15	i	82*	-6	-11	9
O=c1cc[nH]c2c(Cl)cccc12	-2	5	5	i	-1	-3	-6	-19
CCn1cc(C(=O)O)c(=O)c2cc(F)c(N3CCNCC3)cc21	10	-9	-4	i	x	4	-18	x
CC(=O)c1ccc(N2CCCCCC2)c(F)c1	5	-3	-2	i	-7	0	-16	x
CCCNC(=O)CN1C(=O)NC(CCc2ccccc2)C1=O (stereo not given)	1	1	-4	i	x	3	x	8
Cc1nc(NC(=O)c2ccc(OCC(C)C)cc2)sc1Cc1ccc2c(c1)OCO2	-3	-10	-10	i	u	5	x	-32
CCc1cc(=O)oc2cc(C)c(CN3CCCC3)c(O)c12	0	10	77*	i	6	67*	12	2
CC1(C(=O)NS(=O)(=O)C2CC2)CCCN(C(=O)c2ccccc2OC(F)(F)F)C1 (stereo not given)	-2	6	x	x	x	x	-1	5
CC(C)C(N)c1csc(NC(=O)Nc2cccc(Cl)c2)n1 (stereo not given)	-5	-5	x	x	x	x	-12	-23
Nc1c(Cl)cc(-c2csc(NCCc3nc4cc(Cl)c(Cl)cc4n3CCCO)n2)cc1Cl	1	-1	-8	i	17	0	-20	x
C=CCn1c(CCNC(=O)C(C)(C)C)nc2ccccc21	12	8	-5	i	-8	-2	-15	-20
Cc1c(NC(=O)c2cc3nc(-c4ccc(Br)cc4)cc(C(F)(F)F)n3n2)c(=O)n(-c2ccccc2)n1C	7	-3	1	i	-8	-10	x	-1

# An excerpt of these results, with values under each structure:
# Every second line gives: MT1-MMP act inh, MT1-MMP act inh RFP, eIF4H inh, Rce1 inh, CSC inhib, PABP polyA inh, UUG fidelity, Env fusion inh
- CN(C)/C=C/C(=O)c1ccc(S(=O)c2ccccc2)cc1 (stereo not given)
→ -3, 2, 3, i, x, -8, x, 1
- COCC(C)n1c(C)cc(C(=O)COC(=O)c2cc(=O)[nH]c3ccccc23)c1C (stereo not given)
→ -4, -4, x, x, 2, x, -35, x
- COc1ccc2c(c1OC)CN1CCc3cc4c(cc3[C@@H]1[C@@H]2O)OCO4
→ -5, -7, 32, i, -13, -1, -15, x
- CN(C)c1cccc2cccc(N(C)C)c12
→ x, x, 20, i, -9, 20, -12, -8
- CCOC(=O)C(c1ccccc1)C(Nc1ccc(Cl)c(Cl)c1)c1ccccn1 (stereo not given)
→ -5, 0, -14, i, -3, -1, -11, 32
- CCOc1ccc(NC(=O)CCn2c(=O)[nH]c3ccsc3c2=O)cc1
→ 1, -3, -3, i, x, -6, x, -25
- Cc1ccc(C)c(N2CCN(C(=O)c3ccc4c(c3)c(C)c(C)n4C)CC2)c1
→ -2, -1, -15, i, 82*, -6, -11, 9
- O=c1cc[nH]c2c(Cl)cccc12
→ -2, 5, 5, i, -1, -3, -6, -19
- CCn1cc(C(=O)O)c(=O)c2cc(F)c(N3CCNCC3)cc21
→ 10, -9, -4, i, x, 4, -18, x
- CC(=O)c1ccc(N2CCCCCC2)c(F)c1
→ 5, -3, -2, i, -7, 0, -16, x
- CCCNC(=O)CN1C(=O)NC(CCc2ccccc2)C1=O (stereo not given)
→ 1, 1, -4, i, x, 3, x, 8
- Cc1nc(NC(=O)c2ccc(OCC(C)C)cc2)sc1Cc1ccc2c(c1)OCO2
→ -3, -10, -10, i, u, 5, x, -32
- CCc1cc(=O)oc2cc(C)c(CN3CCCC3)c(O)c12
→ 0, 10, 77*, i, 6, 67*, 12, 2
- CC1(C(=O)NS(=O)(=O)C2CC2)CCCN(C(=O)c2ccccc2OC(F)(F)F)C1 (stereo not given)
→ -2, 6, x, x, x, x, -1, 5
- CC(C)C(N)c1csc(NC(=O)Nc2cccc(Cl)c2)n1 (stereo not given)
→ -5, -5, x, x, x, x, -12, -23

# The results go on:
molecule	MT1-MMP act inh	MT1-MMP act inh RFP	eIF4H inh	Rce1 inh	CSC inhib	PABP polyA inh	UUG fidelity	Env fusion inh
CC(C)C(=O)Nc1ccc(C(=O)c2ccccc2)cc1	2	3	6	i	-8	-1	-3	-28
CCN(CC)c1ccc(/C=N/Nc2nc(C)cc(=O)[nH]2)c(O)c1	-11	-11	21	i	17	1	x	6
O=C(Nc1nc2cc(Cl)ccc2s1)C1CCCN(S(=O)(=O)c2cccc3cccnc23)C1 (stereo not given)	-18	-24	-1	i	38	3	-15	x
Cc1onc(-c2ccccc2)c1C(=O)NCCSCc1ccco1	-5	-2	x	x	-7	x	-26	x
Cc1cc(NS(=O)(=O)c2ccc(NC(=O)CCCOc3ccccc3C)cc2)nc(C)n1	4	-1	3	i	-6	10	0	12
Cn1cncc1C#Cc1c(-c2ccsc2)sc2ccccc12	-5	-1	x	x	107*	x	-31	14
CN(C)CCN1CC(C(=O)O)CC1=O (stereo not given)	8	9	-9	i	x	2	-14	x
Cc1ccc(NCc2ccc(O)c3ncccc23)cc1	-23	-27	13	i	18	-5	x	11
Cc1ccc(Cl)cc1N1CCN(S(=O)(=O)c2cc3c(cc2C)NC(=O)CO3)CC1	0	-1	-2	i	16	-16	-15	x
CCN1CCN(C(=O)C2=CC(c3ccc(OC)cc3)=NS(=O)(=O)N2C)CC1	-2	1	-8	i	-9	-4	-24	x
O=[N+]([O-])c1ccc(CSc2nc3ccccc3o2)cc1	4	5	-5	i	-12	-10	-30	-260
OC(c1nc2ccccc2[nH]1)C(O)C(O)C(O)c1nc2ccccc2[nH]1 (stereo not given)	x	x	-4	i	2	-4	x	x
CCN1CNC(=S)N(CCc2ccccc2)C1	1	0	0	i	-16	2	x	x
CC(C)(C)c1cc(CN2CCCC(O)C2)c(O)c(C(C)(C)C)c1 (stereo not given)	0	4	4	i	-11	12	-16	34
